Sa growth inh = S. aureus growth inhibition at 42 and 30 °C, primary screen, LtaS inhibitor project, RN4220, two temperatures; OD600, 20 h, 42 °C; hits give low values; relative growth, % (no concentration beside the values); 0.53% of 170,000 active; AID 720641, 2013;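 active means growth at 42 °C up to 50% and 20 or more points under that at 30 °C, or under 10% at both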;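 further: 300 nL library stock went into each well; scaled to the means of positive and negative controls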
GIV-Gai inh = inhibitors of GIV peptide binding to Galpha-i3, primary screen, biochemical, fluorescence polarization, FITC-GIV GBA peptide, rat Galphai3 | 90 min; hits give low values; scaled: aluminum fluoride 0%, vehicle 100% | percent of control (FP), % (concentration not given with the values) | 0.42% of 210,000 active | AID 1224905, 2016;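 active means replicate mean at 85% of control or lower, very high polarization wells dropped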;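 further: wells of about 15 µL received 100 nL stock; the first replicate is given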
Target sequence (P08753 whole entry, looked up): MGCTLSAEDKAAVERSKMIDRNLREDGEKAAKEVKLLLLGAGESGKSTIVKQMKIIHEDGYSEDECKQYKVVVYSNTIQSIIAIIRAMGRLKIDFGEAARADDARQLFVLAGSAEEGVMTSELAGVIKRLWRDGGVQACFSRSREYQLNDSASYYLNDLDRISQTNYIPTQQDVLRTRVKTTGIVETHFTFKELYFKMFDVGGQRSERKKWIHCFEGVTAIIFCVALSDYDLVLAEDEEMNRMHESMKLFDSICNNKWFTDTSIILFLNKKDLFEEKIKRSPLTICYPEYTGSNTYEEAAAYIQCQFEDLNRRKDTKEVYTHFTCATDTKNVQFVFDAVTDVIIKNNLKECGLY
HCMV NEC inh = inhibitors of HCMV UL50-UL53 interaction, biochemical, HTRF | 0.15% of 190,000 active | AID 1918969, 2023 | inhibition, % (no concentration beside the values) | normalized percent inhibition | HCMV UL50-UL53 nuclear egress complex (human cytomegalovirus);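 active means both replicates at 50% or more, plus weaker picks with an unusually low signal ratio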;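 further: stock transfer was 100 nL into about 20 µL; 0% = negative control wells and 100% = wells with untagged competitor protein; inactives centre near -12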
Sa growth inh second temp = second read-out of Sa growth inh, no call of its own (marks repeat the call); relative growth, %; measured here: growth at 30 °C;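 optical density after 20 h as mean of two plates; 100% = untreated growth and lower means inhibition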
* = called active by the depositor; nt = not tested or not shown; & = joins results of further samples. Not a hit list; any-hit rate near 0.83%.

canonical_smiles	Sa growth inh	Sa growth inh second temp	GIV-Gai inh	HCMV NEC inh
O=C(Cn1c(=O)n(-c2cccc(Cl)c2)c(=O)c2sc3ccccc3c21)N1CCCC1	97	80	102	-76
COc1ccc(Cl)cc1NC(=O)Nc1nc(-c2ccccc2)cs1	nt	nt	101	-14
CC1(C)CC(=O)C(N=Nc2cccc(F)c2C#N)=C(O)C1	88	82	105	-88
Cc1ccc(CNC(=O)CNC(=O)C2(C)Cn3c(cc4ccccc43)C(=O)N2C)cc1 (stereo not given)	nt	nt	103	3
Cc1ccc(C#N)c(=O)n1CC(=O)Nc1ccccc1C(F)(F)F	92	101	105	15
Cc1cc(C)cc(N2CCn3c2nc2c3c(=O)n(Cc3ccc(Cl)cc3)c(=O)n2C)c1	85	87	104	nt
CC(c1ccco1)N(C(=O)C12CC3CC(CC(C3)C1)C2)c1ccccn1 (stereo not given)	108	107	nt	24
CCOc1ccc(Cn2nnc(C(=O)Nc3cccc(SC)c3)c2N)cc1	114	91	106	10
O=C(OCC1CCCO1)c1ccc2c(c1)N(Cc1ccc(Cl)cc1)C(=O)c1ccccc1S2(=O)=O (stereo not given)	nt	nt	103	-14
CCC(CC)C(=O)Nc1ccc(-c2ccc(S(=O)(=O)CC)nn2)cc1	nt	nt	103	-15
C=CCc1cc2c(C)cc(=O)oc2c(I)c1O	104	91	102	-16
Cc1ccc(-c2c(C)noc2C)cc1S(=O)(=O)N1CCC(Cc2ccccc2)CC1	nt	nt	97	-4
COc1cc(OC)cc(-c2noc(-c3scc(-c4cccc(C)c4)c3-n3cccc3)n2)c1	nt	nt	98	-8
CCC(C(=O)N1CCN(c2cccc(C)c2C)CC1)n1nc(C)c2sc3ccccc3c2c1=O (stereo not given)	97	84	103	-8
CC(=O)N(Cc1ccccc1)c1ccc(C(=O)O)cc1	88	92	101	-7
CCOC(=O)c1ccccc1NC(=O)CCc1nc(-c2ccc(C)cc2)no1	91	107	104	1
O=C(NCCCN1CCN(c2ccccc2F)CC1)c1ccc(CS(=O)(=O)c2ccc(Br)cc2)o1	88	79	97	4
Cc1ccc(NC(=O)c2snc3ccc(Cl)cc23)cc1C	101	103	nt	12
CCOC(=O)c1c(-c2cccc(N)c2)cn2ccccc12	nt	nt	103	-46
CC1=C(C(=O)N2CCCCC2)C(c2ccc(Br)cc2)n2c(nc3ccccc32)N1 (stereo not given)	87	90	109	nt
Cc1ccc(NC(=O)Oc2ccccc2N2CCOCC2)cc1Cl	111	81	102	-20
CC(C)c1ccc(-c2noc(SCC(=O)Nc3ccccc3Cl)n2)cc1	nt	nt	105	-9
Cc1cc(C)nc(Nc2ccc(O)cc2)n1	99	84	103	-14
CC(=O)Nc1nc(CC(=O)NCCc2ccc(S(N)(=O)=O)cc2)cs1	nt	nt	107	0
CCOc1ccc(N2CCCCn3c2nc2c3c(=O)n(CC)c(=O)n2C)cc1	nt	nt	99	-23
Cc1nnc(N(Cc2ccco2)C(=O)c2cccc(C#N)c2)s1	108	71	105	-6
CCOc1ccccc1NC(=O)c1sc2nc(C)cc(C)c2c1N	104	97	102	5
CCc1ccc(NC(=O)c2ccc(F)c(S(=O)(=O)N(C)C3CCCCC3)c2)cc1	97	88	106	nt
CC(C)OC(=O)c1cc2c(ccn2C)n1Cc1ccc(Cl)cc1Cl	98	91	102	25
CCOC(=O)c1c(NC(=O)CN2CCCCC2)sc2c1CCCC2	76	88	105	-29
COC(=O)c1cn(CCC#N)nc1-c1cccs1	102	85	105	nt
CCc1ccccc1NC(=O)CC1CS(=O)(=O)CC1CC(=O)Nc1ccccc1CC (stereo not given)	119	85	104	nt
Cc1cc(/C=C2\C(=O)NC(=S)N(C)C2=O)c(C)n1-c1ccc(C(=O)O)cc1	110	78	109	nt
CCCC12CN3CC(CCC)(CN(C1)C3c1ccccc1)C2=O (stereo not given)	123	96	100	nt
O=C(Cc1coc2ccc3ccccc3c12)N1CCN(c2ccccc2)CC1	114	99	112	-6
Cc1nn(CC(=O)Nc2ccc(C(C)C)cc2)c(=O)c2c(C)n(-c3ccc(Cl)cc3)nc12	85	83	98	nt
CCOc1ccc(C(=O)Nc2ccc(Cl)c(-c3nc4cc(C)cc(C)c4o3)c2)cc1	100	92	108	-26
COc1ccc(CN(Cc2ccco2)C(=O)COc2ccccc2OC)cc1	108	87	106	-30
COc1ccc(-c2cc(C(F)(F)F)c3c(C)nn(-c4ccc(Cl)cc4)c3n2)cc1	nt	nt	108	10
NNC(=S)/N=C/c1ccco1	89	98	nt	-34

A stretch of the results above:
canonical_smiles	Sa growth inh	Sa growth inh second temp	GIV-Gai inh	HCMV NEC inh
Cc1ccc(NC(=O)Oc2ccccc2N2CCOCC2)cc1Cl	111	81	102	-20
CC(C)c1ccc(-c2noc(SCC(=O)Nc3ccccc3Cl)n2)cc1	nt	nt	105	-9
Cc1cc(C)nc(Nc2ccc(O)cc2)n1	99	84	103	-14
CC(=O)Nc1nc(CC(=O)NCCc2ccc(S(N)(=O)=O)cc2)cs1	nt	nt	107	0
CCOc1ccc(N2CCCCn3c2nc2c3c(=O)n(CC)c(=O)n2C)cc1	nt	nt	99	-23
Cc1nnc(N(Cc2ccco2)C(=O)c2cccc(C#N)c2)s1	108	71	105	-6
CCOc1ccccc1NC(=O)c1sc2nc(C)cc(C)c2c1N	104	97	102	5

(listing goes on)
canonical_smiles	Sa growth inh	Sa growth inh second temp	GIV-Gai inh	HCMV NEC inh
FC(F)(F)Oc1ccc(N=Cc2ccsc2)cc1	94	88	nt	-38
COC(=O)c1oc2nc(C)cc(C)c2c1N	118	73	102	-41
COc1ccc(N=Cc2c(O)n(C3CCCCC3)c(=O)n(C3CCCCC3)c2=O)cc1	91	101	98	-4
CC1=C(C(=O)Nc2ccccc2)C(c2ccccc2)n2ncc(C(=O)Nc3ccccc3)c2N1 (stereo not given)	94	84	101	nt
CC(=O)Nc1ccc(N(C)C(C)=O)cc1	118	83	105	-11
CCn1c(CCl)nc2cc(C(=O)O)ccc21	119	82	nt	-13
CCOc1ccc(NC(=O)N2CCN(Cc3nc(-c4ccc(C(=O)NC)cc4)oc3C)CC2)cc1	nt	nt	102	-24
COc1ccc(C2CC(c3ccccc3)=NN2C(=O)COc2ccc(-n3cnnn3)cc2)cc1 (stereo not given)	109	93	nt	-5
Cn1c(=O)cc(OCC(=O)NC2CCCCC2)c2ccccc21	91	87	101	-4
CCOc1ccc(-c2csc(NC(=O)Cc3ccccc3)n2)cc1	105	90	nt	-11
Cc1c(N=Nc2ccc(O)cc2)c(=O)n(-c2ccccc2)n1C	69	86	nt	-50
Cc1cc(NC(=O)C2CC(=O)N(C(C)(C)C)C2)no1 (stereo not given)	98	92	105	nt
O=C1NC(=Nc2ccccc2Cl)S/C1=C/c1cccc([N+](=O)[O-])c1	nt	nt	103	-35
COc1ccccc1N(C)S(=O)(=O)c1ccc(C(=O)NC(C)(C)C)cc1	94	88	nt	-10
COc1ccc(CCNc2ncnc3c2cnn3-c2cc(Cl)ccc2C)cc1	119	90	110	nt
CC(C)(C)OC(=O)N1CCC(c2c(C(=O)N3CCN(C(=O)c4ccco4)CC3)cnn2-c2ccccc2)CC1	93	89	108	nt
COc1ccc(NCC(=O)N/N=C/C2CCCCC2)cc1	100	94	nt	-20
O=C1NC(=Nc2ccc(Cl)cc2)SC1Cc1ccccc1[N+](=O)[O-] (stereo not given)	nt	nt	105	-8
CCSc1ncc(Cl)c(C(=O)N(Cc2ccc(N(C)C)cc2)Cc2ccco2)n1	97	71	101	3
Cc1ccc(Cn2cccc2CNS(=O)(=O)c2ccc(C)c(C)c2)cc1	nt	nt	109	-10
COc1ccc(Cl)cc1-c1nnc(SCC(=O)NC2CC3CCC2C3)o1 (stereo not given)	95	68	98	nt
CN(C)S(=O)(=O)c1cccc(C(=O)NC2=NCCS2)c1	112	106	nt	-4
C=CCNC(=S)N1CCN(CCN=Cc2c(C)[nH]n(-c3ccc([N+](=O)[O-])cc3)c2=O)CC1	nt	nt	103	-40
CN(C)c1nc(N)nc2ncn(C)c12	nt	nt	104	-5
CCn1nc(N)c2c(O)[nH]c(=O)cc21	92	71	41*	nt
O=C(OCCCN1C(=O)c2cccc3c(N4CCOCC4)ccc(c23)C1=O)c1ccc([N+](=O)[O-])cc1[N+](=O)[O-]	nt	nt	109	-16
Nc1ccc2nc(CCCO)[nH]c2c1	98	95	95	49
CCCn1cnc2nc(CSc3ccccc3NC(=O)C3CCCCC3)cc(=O)n21	nt	nt	97	-20
COc1ccc2cc(-c3ccon3)ccc2c1	103	117	97	4
CCN1C(C(=O)c2ccccc2)=C(OC(=O)c2ccc(Cl)cc2)c2ccccc2S1(=O)=O	53	50	106	-10
CN(c1c[nH]c(=O)[nH]c1=O)C1CCCCC1	111	85	nt	-8
Cc1cc(C)c(C(=O)NCc2ccco2)c(C)c1C(=O)NCc1ccco1	92	80	nt	-15
O=C(O)c1cc(N2CCN(c3ncccn3)CC2)nc2ccc(NS(=O)(=O)c3ccc(F)c(F)c3)cc12	nt	nt	110	-15
COc1ccc(C(=O)NCC(c2ccc(N(C)C)cc2)N2CCc3ccccc32)c(OC)c1 (stereo not given)	101	94	99	nt
COc1ccc(-c2nnc(SCC(=O)N3CC(C)OC(C)C3)n2C2CCCCC2)cc1OC (stereo not given)	109	93	nt	-5
CCOC(=O)c1c(C)[nH]c(C)c1S(=O)(=O)N(C)CC(=O)Nc1ccc(C)cc1Br	110	82	108	nt
COc1ccc(OCC(=O)N2CCC(Cc3ccccc3)CC2)cc1	120	81	nt	-21
O=C1CSC(=S)N1c1ccc(Oc2ccc(Cl)cc2)cc1	105	102	105	-9
CCc1nc(-c2cc(S(=O)(=O)N3CCC(C(=O)Nc4ccc5c(c4)OCCO5)CC3)c(C)s2)no1	nt	nt	108	-13
CCCN(C(=O)Cn1ncc2c([nH]c3ccccc32)c1=O)c1ccc(F)cc1	88	99	103	nt
CCN1CCCC1CNC(=O)c1ccc2c(c1)N(Cc1cccc(Cl)c1)C(=O)c1ccccc1S2=O (stereo not given)	96	58	99	5
O=S(=O)(NCCc1nc(-c2ccc(Cl)cc2)no1)c1ccc(F)cc1	96	82	105	-21
CC1=NC2N(C(=S)NC(=O)c3ccco3)N=C(NC(=O)c3ccco3)N2C(OC(=O)c2ccco2)=C1 (stereo not given)	85	94	nt	-4
c1ccc2c(N3CCCCC3)nc(N3CCCC3)nc2c1	93	84	103	-12
c1ccc(-c2csc3nc4ccccc4n23)cc1	42	38	98	nt
CC1C(c2ccc(Cl)cc2)=[N+]([O-])C(C)(C)N1O (stereo not given)	88	90	99	-11
COc1ccc(C)cc1S(=O)(=O)Nc1cccc(-c2ccc(N3CCC(C)CC3)nn2)c1	95	91	102	nt
COc1nccc(N)n1	103	87	nt	-14
CSc1sc(C)cc1/C=N/O	118	89	nt	-19
CCC(NS(=O)(=O)c1cc(C)ccc1OC)C12CC3CC(CC(C3)C1)C2 (stereo not given)	98	85	nt	-18
Cc1cc(C)cc(NC(=O)Nc2ccccc2)c1	108	99	96	1
CCOC(=O)c1ccc(NC(=O)/C(C#N)=C/c2ccc(OC)cc2)cc1	96	96	100	-7
COc1ccc(CC(=O)n2nc(C)cc2C)cc1	97	86	99	nt
Cc1cc(=O)[nH]c(NCCO)n1	99&103	82&78	100&102	-28&-7
CC1CCN(C(=O)c2cc3c(s2)-c2ccccc2S(=O)(=O)C3)CC1	nt	nt	107	-75
COc1ccc2c(=O)c3c(oc2c1)C(=O)N(CCN1CCOCC1)C3c1ccccc1 (stereo not given)	97	84	100	-36
CN(C)c1ncc(NS(=O)(=O)c2ccc(F)c(F)c2)cc1C(=O)O	nt	nt	96	-7
